E coli growth: blocks Escherichia coli growth; OD600, 23 h; active compounds read low; OD600 absorbance (no concentration beside the values); 330,000 tested, 0.21% active;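 active means OD600 absorbance below the run mean of sample wells minus 3.6 SD, in any replicate, cut at about 0.56 in these data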;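 further: stock transfer was 300 nL into about 60 µL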
B2AR ag: human beta-2 adrenergic receptor agonism by FAP; P07550; Am2.2-beta2AR cells, FAP receptor internalization, flow cytometry; reference of the scale not given here; response, % (concentration not given with the values); 340,000 tested, 0.43% active; AID 504454;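 active means response above a set limit, near 3 SD of response in nonfluorescent compounds, cut at about 42% in these data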;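 further: stock transfer was 100 nL into about 11 µL; a reference agonist was the positive control; negative values mostly stem from fluorescent compounds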
HNF4A DNA FP: change in binding of human HNF4 alpha to DNA; HNF4a-FITC DNA binding, fluorescence polarization, 1 h; activity change, % at 10 µM; P41235; 360,000 tested, 0.3% active; in the data active means activity change above about 30%, passing the limit was not always enough;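 further: controls were the assay level and a saturating level of protein; the project sought stronger binding though the title names inhibitors; some compounds called inactive have numbers as strong as hits; positive values seem to mean higher polarization but the record does not say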
UCH37 DUB inh: human UCH37 deubiquitinating enzyme inhibition; Q9Y5K5; AID 588478; purified proteasome/UCH37, Ub-AMC cleavage fluorescence; 330,000 tested, 0.33% active; inhibition, % (concentration not given with the values);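 active means mean of two replicates above 20%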;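 further: 0% = compound-free wells with enzyme and 100% = wells lacking proteasome; stock transfer was 100 nL into about 20 µL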
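system = Proteasome-associated human UCH37 deubiquitinase | amount = 0.15 nM proteasome as dispensed | medium = pH 7.4 Tris-HCl (50 mM) with ovalbumin, ATP-MgCl2, DTT | incubation = 30 min preincubation with enzyme, 25 min cleavage at room temperature | detection = AMC fluorescence 355/460 nm | read-out basis = percent inhibition | controls = no-proteasome and no-compound wells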
LANA-H2A inh: blocks KSHV LANA binding to histone H2A/H2B. cell-free LANA-H2A/H2B peptide, fluorescence polarization. inhibition, % (test concentration not listed). 320,000 tested, 0.6% active; in the data active means inhibition mostly above about 10%, no sharp cut-off; inactive means mostly below about 6.7%;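 further: stock transfer was 7.5 nL into about 10 µL; 0% = median of vehicle wells and 100% = median of positive control wells; one replicate is shown; the record names a cut of 25% in any replicate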
Target sequence (Q9QR71 whole entry, looked up): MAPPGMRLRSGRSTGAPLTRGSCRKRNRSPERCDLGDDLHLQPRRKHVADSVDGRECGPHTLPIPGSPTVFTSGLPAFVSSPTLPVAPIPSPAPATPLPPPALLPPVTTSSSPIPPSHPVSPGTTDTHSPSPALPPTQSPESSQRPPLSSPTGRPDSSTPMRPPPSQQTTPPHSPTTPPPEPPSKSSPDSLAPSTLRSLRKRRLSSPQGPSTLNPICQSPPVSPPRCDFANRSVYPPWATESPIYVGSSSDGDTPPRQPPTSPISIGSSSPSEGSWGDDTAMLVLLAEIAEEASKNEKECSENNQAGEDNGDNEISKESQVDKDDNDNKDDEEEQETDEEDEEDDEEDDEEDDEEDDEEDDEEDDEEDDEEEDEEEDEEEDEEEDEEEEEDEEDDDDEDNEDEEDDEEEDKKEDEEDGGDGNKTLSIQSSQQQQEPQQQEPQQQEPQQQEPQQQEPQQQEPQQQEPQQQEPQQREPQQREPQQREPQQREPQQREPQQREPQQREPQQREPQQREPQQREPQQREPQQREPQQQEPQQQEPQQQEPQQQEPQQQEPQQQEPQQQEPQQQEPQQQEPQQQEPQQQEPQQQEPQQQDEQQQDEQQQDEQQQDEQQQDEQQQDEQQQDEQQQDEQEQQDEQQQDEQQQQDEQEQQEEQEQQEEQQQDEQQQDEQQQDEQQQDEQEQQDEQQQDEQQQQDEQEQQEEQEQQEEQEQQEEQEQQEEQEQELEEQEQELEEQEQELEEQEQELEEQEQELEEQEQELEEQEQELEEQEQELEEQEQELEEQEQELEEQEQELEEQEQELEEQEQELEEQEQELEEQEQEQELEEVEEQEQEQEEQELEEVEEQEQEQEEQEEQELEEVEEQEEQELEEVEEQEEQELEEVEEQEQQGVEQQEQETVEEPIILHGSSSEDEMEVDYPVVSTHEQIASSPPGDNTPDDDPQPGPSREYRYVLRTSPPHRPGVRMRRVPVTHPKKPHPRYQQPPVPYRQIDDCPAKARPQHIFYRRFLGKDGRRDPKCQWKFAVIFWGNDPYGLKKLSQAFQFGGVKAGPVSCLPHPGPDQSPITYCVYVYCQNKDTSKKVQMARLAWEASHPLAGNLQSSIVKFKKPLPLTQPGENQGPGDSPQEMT
FGF22 binding: binders of recombinant human FGF22 by thermal shift; 340,000 tested, 1.5% active; calls only at 9.99 µM; Q9HCT0; SYPRO orange fluorescence; percent of sucrose octasulfate shift, DMSO zero;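 active means melting point raised past a set limit in the mean and every replicate; three in four hits are not shown here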
ALR inh: blocks human ALR sulfhydryl oxidase activity. purified ALR, DTT oxidation, H2O2 HRP-luminol luminescence. inhibition, % (test concentration not listed). 290,000 tested, 3.8% active. P55789. AID 485317;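 active means mean and each replicate at 75% or more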;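 further: stock transfer was 7.5 nL into about 7.5 µL; 0% = neutral wells and 100% = wells with inactivated enzyme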
* marks the source's active call; other numbers are inactive results; i = inactive; . = no result given. A portion of the library. The share of hits here may be higher or lower than overall.

SMILES	E coli growth	B2AR ag	HNF4A DNA FP	UCH37 DUB inh	LANA-H2A inh	FGF22 binding	ALR inh
O=[N+]([O-])c1ccc(COc2cccc(CNc3ccc(F)cc3)c2)cc1	0.7	-4	2.7	3.7	.	.	.
C/C(N)=C(/C#N)C(=O)COC(=O)CNS(=O)(=O)c1ccc2ccccc2c1	0.69	-8	-5.8	3.6	-3.8	i	.
Oc1c(Br)cc(Br)cc1CNn1cnnc1	0.69	2	-0.8	1.7	8.3	i	99*
CC(=O)C[C@@H](O)CC(=O)[C@H]1OC(=O)CCCCCCc2ccccc21	.	4	-2.9	2.1	-1.2	i	-1
Clc1ccc(-c2nc(Cc3ccccc3)no2)cc1	.	-5	-1.6	1.9	-1.1	.	-9
COc1cccc(CN(C)C(=O)Cc2ccc(OC)c(S(=O)(=O)N3CCOCC3)c2)c1	0.7	-1	-0.4	0.4	1.5	i	-1
Cc1ccc(NC(=O)c2c([N+](=O)[O-])cnn2C)cc1C	0.66	4	2.4	3.8	5.3	i	3
O=C(CS(=O)c1ccc(F)cc1)Nc1ccccc1Cl (centres undefined)	.	-4	-5.8	.	13*	i	3
Oc1ccc(C[C@H]2CNC(=S)N2CC2CCCN2C[C@H](Cc2ccccc2)N2C[C@H](Cc3ccc(O)cc3)N(CC3CCCCCC3)C2=S)cc1 (some centres undefined)	.	20	1.6	.	.	i	.
O=C(CN1CCCC1)Nc1ccccc1Cl	0.71	-2	0.2	5.4	3.7	.	-10
O=C(OCc1ccccc1)N1CCCC1/C=C/CN1CCOCC1 (centres undefined)	.	0	-0.4	1.1	0.7	i	1
CCOc1ccc2nc(SCc3ccc(F)cc3)sc2c1	0.69	13	2.7	5.0	-1.1	.	-10
Cn1c(=O)n(C/C=C/c2ccccc2)c(=O)c2c1nc1n2CCCN1c1ccc(F)cc1	0.76	2	0.2	6.6	-0.9	.	30
COC(=O)CN(C)C(=O)c1ccc2nc(Cc3cccc(Cl)c3)oc2c1	0.71	1	1.6	1.3	-1.7	i	.
CCn1cnc2c(Nc3cc(F)cc(F)c3)nc(C#N)nc21	0.7	0	-1.7	-1.0	-1.1	i	3
Cc1ccc(S(=O)(=O)N2CCOCC2)cc1C(=O)Nc1ccc(-c2cn3ccsc3n2)cc1	0.71	-3	0.4	2.6	3.7	.	-23
CCn1cc(-c2cc(C(F)(F)F)n3nc(C(=O)O)cc3n2)c(C)n1	0.71	4	0.3	-2.2	3.9	.	-10
CCCCCNC(=O)c1cn(CC)c2cc(N3CCN(C)CC3)c(F)cc2c1=O	0.047*	-2	-2.0	-42	1.5	i	-32
COc1ccc(Nc2nc(-c3c(C)nc4ncccn34)cs2)cc1	.	0	-3.8	.	.	i	.
OCCN1CCN(c2nc(N3CCCCC3)nc(N3CCCCC3)n2)CC1	0.68	4	-5.3	0.5	-2.0	.	-6
Cc1noc(NC(=O)c2ccc(F)cc2)c1C#N	0.77	-3	-1.3	-0.6	-4.3	.	-5
CCCCOC1CC(c2ccc(OCc3ccc(OC)cc3)c(OC)c2)N(C)O1 (centres undefined)	0.69	1	2.1	-1.3	-4.9	i	9
O=C(C[C@H]1C/C=C\CC[C@@H](Cc2ccc(F)cc2)C(=O)OC[C@H]2CCCN2C1=O)N[C@H](CO)Cc1ccccc1	.	2	-0.8	.	.	i	.
COc1ccc(CCN=Cc2ccc(O)cc2)cc1OC	0.65	3	-2.4	3.1	-7.0	i	-8
COc1ccc(OC)c(CN2CCN(C(=O)c3ccco3)CC2)c1	0.63	-3	0.1	1.7	-3.5	i	6
Nn1c(C2CCCCC2)nc2ccccc2c1=O	0.7	-7	-0.2	7.2	0.1	i	-22
COCCNC(=S)NNC(=O)c1ccc(-n2cnnn2)cc1	0.72	2	2.1	0.8	4.3	i	49
Cc1onc(-c2ccccc2Cl)c1C(=O)N1CCc2ccccc2C1	0.7	13	3.7	1.8	-1.9	.	1
COc1ccc(C(=O)NCC(c2ccco2)N2CCc3ccccc32)cc1OC (centres undefined)	0.69	7	-2.7	3.2	2.7	i	72
O=C(Cn1nc(C(=O)O)c2ccccc2c1=O)Nc1ccc(Br)cc1	0.64	0	-1.4	3.8	-2.6	i	.
OCCC1CN(Cc2cccc3nonc23)CCN1C1CCCCC1 (centres undefined)	0.7	3	1.1	4.6	-1.9	i	-6
O=C(Nc1ccc(Cl)cc1)Nc1nc(-c2sccc2Br)cs1	0.75	1	0.9	2.9	0.4	.	-1
CC(C)(C)c1ccc(C(=O)C2CCCN(C(=O)CN3CCCC3=O)C2)cc1 (centres undefined)	0.71	9	-1.3	0.7	-2.1	i	-3
Cc1cccc2cc(CN(Cc3cccs3)S(=O)(=O)c3ccc4c(c3)OCCO4)c(=O)[nH]c12	0.76	26	0.9	1.5	-0.7	i	-6
COc1cc2cc3c(N)c(C(=O)Nc4sc(C)c(C)c4C#N)sc3nc2cc1OC	0.69	-4	15	4.2	1.2	.	39
CCNC(=O)CN(c1ccccc1)S(=O)(=O)c1ccc(Cl)cc1	0.68	3	0.5	1.7	-2.5	i	-4
Cc1ccc(S(=O)(=O)/N=C2\C=C(Nc3cccc(C(=O)O)c3)C(=O)c3ccccc32)cc1	.	31	1.7	.	1.8	i	.
COc1ccc(S(=O)(=O)N2CCN(CC(=O)NC(Cc3ccccc3)C(C)=O)CC2)cc1 (centres undefined)	0.66	-7	0.3	-0.2	0.4	i	-7
Cc1cc(C)c(S(=O)(=O)Nc2cccc3nsnc23)c(C)c1	0.7	2	1.2	-3.1	2.0	.	1
CCOc1ccc(-c2nnc3ccc(SC(C)C)nn23)cc1	.	-32	5.5	.	-0.8	i	.
CCSc1nnc(-c2ccncc2)o1	0.7	0	-0.3	2.8	-1.4	.	1
CN(CC(=O)Nc1cccc(F)c1)CC(=O)Nc1cc(S(=O)(=O)N2CCOCC2)ccc1Cl	0.69	2	-0.1	-1.1	3.3	i	.
CCOc1ccc(-c2nc(N)ncc2Oc2ccccc2Br)c(O)c1	0.71	12	1.7	0.2	-0.5	.	-24
CC1CCN(S(=O)(=O)c2ccc3c(ccn3CCC(=O)N3CCCCC3)c2)CC1	0.69	6	0.2	4.9	-2.6	i	-26
COc1ccc(N(C(=O)COc2cccc(C)c2)S(=O)(=O)c2ccc(C)cc2)cc1	0.73	-5	-4.8	-1.6	-2.9	.	.
COC(=O)c1ccccc1NC(=O)Cn1c(SC)c(F)cnc1=O	0.75	-5	-2.0	2.5	-0.8	.	-1
O=C(NCc1ccco1)/C(=C\c1cccs1)NC(=O)c1ccccc1	0.66	-13	4.0	3.9	4.0	i	-3
O=C(NNC(=O)c1cccnc1SCc1cccc([N+](=O)[O-])c1)c1ccccn1	0.67	4	-2.8	2.0	-6.0	i	1

Complete entries, looked up by structure. Screens in order: E coli growth | B2AR ag | HNF4A DNA FP | UCH37 DUB inh | LANA-H2A inh | FGF22 binding | ALR inh
COc1ccc(S(=O)(=O)N2CCN(CC(=O)NC(Cc3ccccc3)C(C)=O)CC2)cc1 (centres undefined) in the list: 0.66 | -7 | 0.3 | -0.2 | 0.4 | i | -7
Cc1ccc(S(=O)(=O)/N=C2\C=C(Nc3cccc(C(=O)O)c3)C(=O)c3ccccc32)cc1 in the list: . | 31 | 1.7 | . | 1.8 | i | .
O=C(NNC(=O)c1cccnc1SCc1cccc([N+](=O)[O-])c1)c1ccccn1 in the list: 0.67 | 4 | -2.8 | 2.0 | -6.0 | i | 1

More results:
SMILES	E coli growth	B2AR ag	HNF4A DNA FP	UCH37 DUB inh	LANA-H2A inh	FGF22 binding	ALR inh
O=C(COC(=O)c1ccccc1NS(=O)(=O)c1ccc(Cl)cc1)NCc1ccccc1	0.71	7	0.1	-3.5	-0.2	.	-16
Cc1nc2c3ccccc3n(CC#N)c(=O)n2n1	0.71	3	-2.4	2.9	3.5	i	-1
CCC(=O)NNc1cc(=O)c2c(=O)n(C)c(=O)n(C)c2[nH]1	0.66	6	0.0	1.5	-4.0	.	-5
COc1cc(CNc2ccc(O)cc2)cc(Br)c1OCc1ccccc1F	0.68	10	-0.5	2.4	5.7	.	.
O=C(CN1CCN(Cc2ccccc2Cl)C1=O)NCc1ccco1	0.71	7	-1.7	1.3	0.8	.	3
Cc1nnc(SCC(=O)N/N=C/c2cn(-c3ccccc3)nc2-c2ccccc2)n1-c1ccccc1	.	64*	0.2	.	1.4	.	-7
Cc1cc(C(=O)CSCCCn2c(=O)[nH]c3ccccc32)c(C)n1C	0.67	-9	-3.9	1.8	3.0	.	67
COC(=O)c1ccc(-c2c(-c3ccccc3)ncc3cc(OC)c(OC)cc23)cc1	0.72	-1	0.4	-0.2	2.6	i	1
O=C(Nc1ccccc1)[C@@H]1CC=C[C@@H]2CCN(Cc3ccccc3)C(=O)[C@@H]21	.	-8	-1.4	0.6	-3.3	i	0
O=C(c1cc(N2CCOCC2)c(F)cc1[N+](=O)[O-])N1CCOCC1	0.63	11	1.5	8.5	2.1	i	.
C/C=C(\C)CN1CCCC(CO)(Cc2ccccc2)C1 (centres undefined)	0.66	9	1.2	-0.9	-0.2	.	-4
Cc1ccc2nc(SCC(=O)Nc3ccc(F)cc3F)[nH]c2c1	0.66	1	-0.2	2.2	-2.4	.	5
N/C(=N\OC(=O)c1ccco1)c1cccc(Br)c1	0.65	0	-5.3	2.9	.	.	.
CN(CC(=O)Nc1ccc(Cl)cc1)C(=O)CNC(=O)Cc1cccc2ccccc12	0.66	0	-4.0	2.2	1.0	i	.
CCOC(=O)C1(C(=O)OCC)NC(=O)CC1CC(C)C (centres undefined)	0.67	6	-2.7	1.1	.	i	.
CCCC(=O)NCCc1nc2ccccc2n1C	0.7	-1	-0.1	0.4	-0.4	.	-13
NC(=O)c1ccc(N=Cc2ccc([N+](=O)[O-])s2)cc1	0.35*	24	0.7	62*	17*	i	0
O=[N+]([O-])c1ncn(Cc2c(Cl)cccc2Cl)n1	0.69	-2	-1.2	5.9	.	i	.
CCCCCCc1nc2c(=O)[nH]c3ccccc3c2o1	0.7	-1	-0.8	-0.9	1.8	.	.
CS(=O)(=O)NCCSCc1c(Cl)cccc1Cl	0.7	2	-0.9	0.8	4.1	.	-4
O=C(CCc1nc2ccccc2c(=O)[nH]1)OCc1ccc(-c2ccccc2)cc1	0.71	14	-0.4	2.1	2.7	i	0
OCC1(Cc2ccccc2)CCN(Cc2cnc(-c3ccc(Cl)cc3)nc2)CC1	0.65	-3	-0.3	4.3	-3.4	i	-8
COCCNC(=O)CN(C(=O)CCC(=O)Nc1ccccn1)c1ccc(OC)cc1	0.73	1	-2.4	1.9	-0.1	i	-4
CC(=O)Nc1ccc(Br)c2ccccc12	0.73	3	-0.2	2.3	-2.8	i	-7
Cc1cc(OCc2nn[nH]n2)c2c(C)c(CC(=O)O)c(=O)oc2c1	0.65	-7	1.5	-287	0.0	.	-5
CCN1CCN(C(=O)c2ccccc2NC(=O)c2ccc(Cl)cc2)CC1	0.67	-2	2.1	0.1	4.5	i	-1
Cc1nn(-c2ccccc2)c(C)c1CN(C)C(=O)c1ccc(S(=O)(=O)NCc2ccco2)cc1	0.67	0	7.9	-1.7	0.7	i	-25
NC(=O)CC[C@H](NC(=O)[C@H](Cc1ccccc1)n1c(=O)[nH]c2ccccc2c1=O)C(=O)N1CCC[C@H]1C(=O)O	0.7	-1	-0.3	0.6	0.6	i	-3
CCOC(=O)C1=C(C)N=c2s/c(=C/c3cccc([N+](=O)[O-])c3O)c(=O)n2C1c1cc(OC)c(OC)c(OC)c1 (centres undefined)	.	18	3.9	.	4.2	i	-5
CCC(=O)NC(=S)NNC(=O)c1ccc(NC(=O)c2ccccc2)cc1	0.64	-11	0.2	-2.7	2.7	i	-16
CC(C)(C)c1ccc(S(=O)(=O)NCC(=O)N2CCN(Cc3ccccc3)CC2)cc1	0.63	0	-4.4	0.3	0.8	i	-22
CCC1=Nc2cc(C(=O)NCc3ccco3)ccc2Sc2ccc(Cl)cc21	0.71	26	2.6	2.7	-0.6	.	10
CC(C)NC(=O)Cn1cc(S(=O)(=O)N2CCCC2)c(S(=O)(=O)N2CCCC2)c1	0.65	0	6.2	2.2	-1.0	i	1
CC1=NN2C(=N)/C(=C\c3ccc(SCc4ccccc4)o3)C(=O)N=C2S1	0.73	-1	5.2	3.6	-4.8	.	.
